Compound activity deposited in PubChem BioAssay by National Center for Advancing Translational Sciences (NCATS).
RE007 growth inh – less growth of the S. pombe RE007 Vpr strain; AID 651644; S. pombe RE007 Vpr strain, BacTiter-Glo ATP luminescence, 24 h; control for the full effect not named in the record; 0.21% of 360,000 active; Potency, µM (doses to about 92.2 µM), for inactives: top-dose activity change, negative = less growth; active = well fitted falling curve with a large enough effect; inconclusive = small, poorly fitted or top-dose-only effect; inactive = no such curve, though single readings can be large or run the other way;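 further: on the % scale 0 is the no-effect control and ±100 the full control effect; nearly all actives have a fitted effect of over 50% in size; the assay follows cell death caused by Vpr and the record does not say whether a fall means rescue or toxicity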
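Fission yeast strain RE007, carrying one chromosomally integrated HIV-1 vpr copy, was seeded at OD 0.01 in PMG+AL medium with 23 nL pinned compound. After 24 h at 30 °C and 99% humidity, viability was read by BacTiter-Glo luminescence.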
Cruzain inh Det – inhibitors of Trypanosoma cruzi cruzain with detergent; P25779; purified cruzain, Z-FR-AMC fluorescence, 0.01% Triton; Potency, µM, for the others: max response, negative = inhibition, usual class: inhibitors; 0.43% of 200,000 active; AID 1478;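 further: plate controls were neutral wells for no effect and buffer without enzyme for full effect; nearly all actives have a fitted effect of over 40% in size; top concentration of the series not given in the record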
Target sequence (P25779 123-467 limits assumed): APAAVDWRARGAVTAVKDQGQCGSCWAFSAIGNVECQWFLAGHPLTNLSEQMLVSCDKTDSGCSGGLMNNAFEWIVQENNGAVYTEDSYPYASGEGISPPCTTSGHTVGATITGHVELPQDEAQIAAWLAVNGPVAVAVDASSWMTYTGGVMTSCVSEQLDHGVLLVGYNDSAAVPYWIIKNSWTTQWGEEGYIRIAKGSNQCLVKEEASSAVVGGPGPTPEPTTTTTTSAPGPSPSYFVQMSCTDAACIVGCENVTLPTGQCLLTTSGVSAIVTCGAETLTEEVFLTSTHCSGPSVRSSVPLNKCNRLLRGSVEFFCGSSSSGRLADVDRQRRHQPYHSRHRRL
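Steps: dispense cruzain (1.5 nM final) in acetate buffer pH 5.5 with DTT and 0.01% Triton X-100; pin-transfer compounds; incubate 15 min RT; add Z-FR-AMC (2 uM final); read fluorescence every 30 s, using the 60 s intensity change.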
SARS PLP yeast – blocks SARS-CoV papain-like protease in a yeast assay | S. cerevisiae expressing SARS-CoV PLpro, growth rescue; control for the full effect not named in the record | Potency, µM (titrated, usually from 32.9 µM), for the others: at the highest dose activity, positive = growth rescue | 0.19% of 330,000 active; active means well fitted rising curve with a large enough effect; inconclusive means small, poorly fitted or top-dose-only effect; inactive means no such curve, though single readings can be large or run the other way; further: 0% is about no effect; nearly all actives have a fitted effect of over 55% in size; growth read by luminescence after 48 h
NS1 inh – influenza NS1 inhibition | S. cerevisiae slowed by influenza A NS1, growth recovery by OD600 | Potency, µM (doses to about 46.1 µM), for the others: top-dose activity, positive = more growth | 0.4% of 270,000 active | AID 2326; active means well fitted rising curve with a large enough effect; inconclusive means small, poorly fitted or top-dose-only effect; inactive means no such curve, though single readings can be large or run the other way; further: nearly all actives have a fitted effect of over 50% in size
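S. cerevisiae expressing influenza A NS1, grown in glucose, washed, then diluted 1:100 into pH 6.0 -URA galactose medium with 23 nl compound. Growth recovery read as OD600; NS1-free strain serves as control.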
Marburg entry inh – blocks Marburg virus binding to or entry into cells; Marburg virus pseudotyped entry inhibition, cell reporter; control for the full effect not named in the record; about a third of the inactives were read at about 46 µM; Potency, µM (highest dose often 37.8 µM), for the others: at the highest dose activity change, negative = inhibition, usual class: inhibitors; AID 540276; 1.8% of 300,000 active; active = well fitted inhibition curve with a large enough effect; inconclusive = small, poorly fitted or top-dose-only effect, or effect the other way; inactive = flat fitted curve, though single readings scatter; tested in HEK293 cells; about a fifth of its hits are not listed in these tables; further: on the % scale 0 is the no-effect control and ±100 the full control effect; luciferase read-out
Lassa entry inh – Lassa virus entry inhibition. Lassa virus pseudotype entry inhibition, cell reporter; control for the full effect not named in the record. Potency, µM (series often up to 37.9 µM), without a hit: top-dose activity change, negative = inhibition, most hits filed as inhibitors. 1.2% of 300,000 active. AID 540256; active means well fitted inhibition curve with a large enough effect; inconclusive means small, poorly fitted or top-dose-only effect, or effect the other way; inactive means flat fitted curve, though single readings scatter; tested in HEK293 cells; further: on the % scale 0 is the no-effect control and ±100 the full control effect; nearly all actives have a fitted effect of over 50% in size; luciferase read-out
Cruzain inh noDet – blocks cruzain activity in detergent-free assay; P25779; purified cruzain, Z-FR-AMC fluorescence, no detergent; Potency, µM, without a hit: max response, negative = inhibition, actives largely listed as inhibitors; 2.3% of 200,000 active;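 further: plate controls were enzyme without inhibitor for no effect and buffer without enzyme for full effect; nearly all actives have a fitted effect of over 40% in size; top concentration of the series not given in the record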
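Detergent-free condition (0.00005% Triton X-100) in acetate buffer pH 5.5 with DTT. 1.5 nM enzyme and compound were pre-mixed 15 min, then 2 uM Z-FR-AMC substrate added; reaction progress from fluorescence change between first and third reads (60 s).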
StopGo reporter – lowers the luciferase signal of an FMDV 2A StopGo reporter | human cells with a luciferase reporter of 2A StopGo recoding; control for the full effect not named in the record | Potency, µM (series often up to 57.9 µM), for the others: at the top dose signal change, negative = less light | 1.2% of 410,000 active | AID 1159524; active = well fitted falling curve with a large enough effect; inconclusive = small, poorly fitted or top-dose-only effect; inactive = no such curve, though single readings can be large or run the other way; tested in HEK293T cells; further: on the % scale 0 is the no-effect control and ±100 the full control effect; nearly all actives have a fitted effect of over 45% in size; luciferase light after 4 h
Active calls of the source: *; ? = inconclusive; / = not tested or not shown; & = joins results of further samples; [ ] = remark or other dose. Unless noted, the call rests on the fitted dose curve; in most records, active means well fitted curve in the direction sought with a large enough effect; inconclusive means small, poorly fitted or top-dose-only effect, or another doubt; inactive means no such curve, though single readings can be large; an effect the other way counts as inactive or inconclusive. Potency means the concentration at half of the fitted maximal effect.

SMILES	RE007 growth inh	Cruzain inh Det	SARS PLP yeast	NS1 inh	Marburg entry inh	Lassa entry inh	Cruzain inh noDet	StopGo reporter
COc1ccc(CCN2C(=O)CC(N3CCN(S(=O)(=O)c4ccccc4)CC3)C2=O)cc1 (stereo not given)	10%	1.1%	2%	-3%	-7%&27%	-1%	?	-15%
CCOC(=O)C1=C(C)N=C2SC(C(=O)OC)=CC(=O)N2C1c1cc(OC)c(OC)c(OC)c1 (stereo not given)	0%	-15%	5%	?	6%	-22%	?	-13%
Cc1cc(/C=N/n2cnnc2)c(C)n1-c1ccc2c(c1)OCO2	14%	-3.9%	0%	-2%	-24%	-2%	-4%	-22%
O=C(Cn1nc(-c2ccccc2)c2cnc3ccccc3c21)Nc1ccccc1	/	-1.1%	/	/	-30%[46.1 µM]	29%[46.1 µM]	12%	-16%
Cc1ccc(-c2cc(C(F)F)n3ncc(C(=O)NCc4ccco4)c3n2)cc1	-7%	-2.3%	-6%	-1%	9%	12%	-9%	-16%
O=C(c1n[nH]c(=O)c2ccccc12)N1CCC2(CC1)OCCO2	0%	/	1%	/	0%[46.1 µM]	3%	/	0%
Nc1ccc(Sc2ccccc2Cl)nc1	13%	/	/	/	-19%	?	/	16%
CC(C)CNC(=O)C1CC(=O)OC12CCCCC2 (stereo not given)	-1%	2.1%	1%	6%	24%	-3%	1%	-17%
CSc1nnc(-c2cccn(Cc3cccc(Cl)c3)c2=O)o1	2%	/	2%	/	8%	17%	/	6%
C=CCOc1ccc(/C=N/Nc2ccccn2)cc1OC	-4%	/	-1%	/	?	9%	/	61%[activator]
Cc1ccccc1CC(=O)c1ccc(O)c(C)c1O	37%	/	-4%	-7%	-41%[46.1 µM]	?	/	0%
CCn1c(CC(=O)Nc2cccc(Cl)c2Cl)nnc1SCCOc1ccc(OC)cc1	4%	-0.8%	11%	-7%	-1%	2%	-6%	12%
CC(C)n1c(NCc2ccc(N(C)C)cc2)nc2ccccc21	0%	-1.3%	9%	-13%	13%	10%	5%	-20%
O=C(NCCCn1ccnc1)/C(=C\c1cccnc1)NC(=O)c1ccccc1F	-1%	/	0%	2%	/	/	/	21%
COc1ccc(CC(=O)N/N=C(\C)c2cccnc2)cc1	-4%	/	-4%	-15%	?	-4%[46.1 µM]	/	25%
COC(=O)c1cc(NS(=O)(=O)c2ccc(OC)c(OC)c2)ccc1Cl	25%	-5.2%	-1%	-1%	-13%	-15%	-22%	65%[activator]
CCN1CCN(CCC(=O)Nc2cc(OC)ccc2OC)CC1	-2%	/	2%	12%	18%	-24%	/	-5%
Cc1nc(SC(C(=O)c2ccccc2)c2ccccc2)nc2ccccc12 (stereo not given)	1%	-6.1%	7%	13%	-6%	0%	?	-13%
CCOc1ccccc1CNC(=O)C1CCN(C(=O)N2CC(CC)Oc3ccc(C)cc32)CC1 (stereo not given)	/	-6.9%	/	/	/	?	?	35µM*
CNC(=O)COc1ccc(S(=O)(=O)N2CCCC2)cc1	2%	/	-2%	2%	0%	-2%	/	2%
O=c1oc2cc(O)ccc2cc1-c1ccc(F)cc1	-12%	19%	-14%	1%	14%	-21%	?	2%
Cc1ccc(C2CC(=O)NC(SCC(=O)OCc3ccccc3)=C2C#N)o1 (stereo not given)	5%	-2.3%	5%	-11%	?	?	-11%	-15%
O=C(Oc1ccc2c3c(c(=O)oc2c1)CCCC3)c1cccs1	-11%	-5.6%	?	6%	0%	-1%	-3%	-19%
CCC(C)NC(=O)Cc1c(OC)ccc2cc(Br)ccc12 (stereo not given)	-5%	/	0%	1%	/	/	/	-29%
COc1ccc(C(=O)Oc2ccc(C(=S)N3CCCC3)cc2)cc1OC	/	-9.1%	13%	7%	3%	-7%	2%	/

Carrying on:
SMILES	RE007 growth inh	Cruzain inh Det	SARS PLP yeast	NS1 inh	Marburg entry inh	Lassa entry inh	Cruzain inh noDet	StopGo reporter
COc1ccccc1-c1ccc(NC2CCCC2)nn1	-11%	-2.3%	-24%	-10%	-2%	13%	-1%	51%[activator]
Cn1c(SCC(=O)N2CCCC2=O)nnc1-c1ccccc1F	19%	/	3%	/	5%[46.1 µM]	18%	/	29%
CC(=O)c1cc2c(cc1NC(=O)CCc1c(C)nc3ncnn3c1C)OCO2	-2%	/	-1%	/	?	5%	/	8%
Cc1cc(C(=O)CSc2nnc(-c3cccnc3)n2-c2ccccc2)c(C)n1CC1CCCO1 (stereo not given)	0%	6.8%	9%	10%	-6%	5%	?	/
O=C(O)CCNC(=O)COc1ccc2c3c(c(=O)oc2c1)CCCC3	-13%	/	-1%	5%	/	/	/	6%
O=C(Nc1ccc(N2CCOCC2)c(Cl)c1)c1c(F)c(F)c(F)c(F)c1F	14%	-1.9%	0%	-33%	-6%	-4%	-29%	?
CCOC(=O)c1cccc(NC(=S)NCc2ccc(C)cc2)c1	10%	/	-2%	-1%	-14%[46.1 µM]	1%[46.1 µM]	/	16%
COc1ccccc1NC(=O)Nc1nc(CC(=O)NC2CCCC2)cs1	-15%	/	0%	/	-9%	-5%	/	-18%
Cn1cnnc1Sc1ccc(/C=C(\CCC(=O)O)c2nc3ccccc3s2)cc1[N+](=O)[O-]	-2%	/	-1%	/	8%	-24%	/	6%
CC(C)C[C@H](NC(=O)[C@H](Cc1ccccc1)n1c(=O)[nH]c2ccccc2c1=O)C(=O)N1CCC[C@H]1C(=O)O	-1%	/	0%	29%	/	/	/	-11%
COc1ccc2[nH]c(C)c(CCN3CCC(=O)C(C)C3C)c2c1 (stereo not given)	-6%	0.8%	2%	-4%	/	/	-3%	-18%
NC(=O)CCc1c[nH]c2ccccc12	0%	2.5%	0%	-8%	?	13%	2%	-16%
COc1ccc(NC(=O)CSc2nc3ccccc3c(=O)n2CCNC(C)=O)cc1	0%	5.5%	-1%	-4%	-5%	-8%	8%	-20%
Nc1[nH]ncc1N=Nc1ccc(Cl)cc1	32%	-4.9%	-25%	-62%	4%	21%	-11%	37%[activator]
COc1ccccc1C1CCN(Cc2ccc(Cl)cc2Cl)CC1	6%	/	-2%	-2%	?	-7%[46.1 µM]	/	-14%
Cc1ccc(-c2cc(=O)[nH]c3ccccc23)cc1	13%	/	/	/	-29%	12%	/	-6%
Cc1ccccc1Cn1nnc(-c2ccc(F)cc2)n1	0%	/	-3%	-3%	10%[46.1 µM]	?	/	18%
Cc1ncc(/C=C2\C(=O)Nc3ccccc32)[nH]1	19%	/	0%	8%	17%	?	/	-24%
NS(=O)(=O)c1ccc(NC(=O)COC(=O)c2ccc([N+](=O)[O-])s2)cc1	-2%	/	0%	-1%	/	/	/	10%
CC(=O)c1cccn1S(=O)(=O)c1ccccc1	9%	/	-2%	3%	/	/	/	-17%
CCn1c(C(=O)NCc2cccc(Br)c2)cc2oc3ccccc3c21	/	-6.0%	/	/	?	/	-29%	-6%
CCOc1ccccc1NC(=O)NC1(C(=O)NCc2cccnc2)CCCCC1	0%	/	-5%	-3%	13%[46.1 µM]	2%[46.1 µM]	/	-2%
O=C(CCN1CCOCC1)Nc1ccccc1	-3%	4.3%	0%	4%	23%	15%	2%	2%
COc1ccc(NC(=O)NCCn2nnc3cc(S(=O)(=O)N(C)C)ccc32)cc1	/	0.8%	/	/	/	-19%[46.1 µM]	-3%	2%
COc1ccc(S(=O)(=O)N2CCN(C(=O)c3oc4ccccc4c3C)CC2)cc1	-2%	/	-11%	-27%	-19%	-15%	/	?

More results:
SMILES	RE007 growth inh	Cruzain inh Det	SARS PLP yeast	NS1 inh	Marburg entry inh	Lassa entry inh	Cruzain inh noDet	StopGo reporter
Cc1ccc(-n2nnnc2SCC(=O)N2CCCCC2)cc1	-1%	6.7%	17%	-12%	?	-2%	-6%	24%
Cc1csc(Sc2ccc([N+](=O)[O-])cc2C(=O)OCC(=O)NC2CCCC(C)C2C)n1 (stereo not given)	6%	4.6%	1%	7%	-23%	-1%	-3%	3%
CCn1c(SCC(=O)Nc2cc(C)on2)nnc1-c1c[nH]c2ccccc12	3%	/	0%	10%	/	/	/	-19%
Cc1cc(=O)[nH]c(SCC(=O)NC2CCCCCC2)n1	4%	/	-10%	/	3%	14%	/	-9%
Cc1ccccc1NC(=O)Nc1cccs1	-11%	3.8%&-7.0%	6%	26%	-10%	2%	8%&8%	35%&36%[activator]
Cc1cc(C)cc(C(=O)n2nc(C)c(S(=O)(=O)N3CCCCCC3)c2C)c1	/	-1.3%	/	/	/	-7%[46.1 µM]	-6%	2%
CC1=C(C)[N+](=O)C2(O)CCCCC2(C)N1[O-] (stereo not given)	2%	3.3%	7%	?	-1%	-16%	4%	-5%
CCCCCN(C(=O)CCC(=O)OCC(=O)c1cccc(OC)c1)c1c(N)n(CCCC)c(=O)[nH]c1=O	46%	/	3%	6%	3%	26%	/	-18%
CC1(C)CC(=O)C=C(NCC(=O)O)C1	-12%	2.9%	0%	2%	-14%	9%	-2%	/
CCN(CC(=O)Nc1c(F)cccc1F)C(=O)CCSc1ccc(F)cc1	-5%	/	1%	/	11%[46.1 µM]	2%	/	-20%
Cc1[nH]n(C(N)=S)c(=O)c1N=Nc1ccc2ccccc2c1	?	/	-20%	/	?	-2%	/	1%
O=C(NNC(=O)C1CCCCC1)c1ccncc1	-9%	/	0%	1%	9%[46.1 µM]	?	/	13%
CC(=O)C1=C(O)C(=O)N(c2ccc(Br)cc2)C1c1cccc(F)c1 (stereo not given)	3%	/	-4%	10%	/	/	/	-12%
CN(C)c1nc(SCc2ccccc2)nc(N2CCOCC2)n1	-5%	-0.4%	-11%	-26%	-10%	-1%	3%	-15%
COC(=O)Cn1cc(/C=C/[N+](=O)[O-])c2ccccc21	?	/	-3%	/	?	?	/	?
Cc1ccccc1OCCC(=O)Nc1cccc(S(=O)(=O)Nc2ccccc2Cl)c1	-10%	-8.5%	-1%	4%	1%	?	-6%	?
CC(C)Cn1c(-c2ccco2)n[nH]c1=S	8%	5.1%	1%	0%	5%	-11%	2%	2%
CC(C)c1nnc(SCC(=O)Nc2ccc3c(c2)OCCO3)n1C	9%	/	0%	2%	-19%[46.1 µM]	0%	/	8%
COc1cccc(OC)c1OCCCN1CCC(Cc2ccccc2)CC1	-18%	/	-4%	8%	11µM*	?	/	19%
CCCCN(C)C(=O)c1coc(=O)c2ccccc12	13%	-2.3%	7%	5%	-12%	-7%	-3%	3%
O=C(O)CCCN1C(=O)c2ccccc2Sc2ncccc21	-18%	/	2%	-1%	/	/	/	-11%
